Screens from PubChem BioAssay.
Ecoli growth: inhibitors of Escherichia coli growth; OD600, 23 h; hits give low values; OD600 absorbance (no concentration beside the values); 330,000 compounds, 0.21% hits; AID 1053175;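 active means OD600 absorbance below the run mean of sample wells minus 3.6 SD, in any replicate, cut at about 0.56 in these data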;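 further: stock transfer was 300 nL into about 60 µL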
* = called active by the depositor; & = joins results of further samples.

SMILES | Ecoli growth
CC(C)CC(NC(=O)c1[nH]cnc1C(=O)NC(C)C(=O)OC(C)(C)C)C(=O)OC(C)(C)C (stereo unspecified) | 0.64
O=C1NCC(Cc2cccc3ccccc23)N(CCC23CC4CC(CC(C4)C2)C3)C1=O (stereo unspecified) | 0.68
C=C(C)C(=O)OC1CC(C)=CC(=O)C=C(C)C(O)C2OC(=O)C(=C)C12 (stereo unspecified) | 0.68
NC(=O)CNC(=O)C1CC2(CC(c3ccc(Cl)cc3)=NO2)CN1C(=O)c1ccccc1 (stereo unspecified) | 0.61
O=C(O)COc1ccccc1C=NNC(=O)C(=Cc1ccc2c(c1)OCO2)NC(=O)c1ccccc1 | 0.72
CCOc1ccc(N=C2NC(=O)SC2=Cc2ccc(O)cc2)cc1 | 0.67
CC1CN(C(C)CO)C(=O)c2cc(NS(=O)(=O)c3cccs3)ccc2OC1CN(C)Cc1ccc(C(F)(F)F)cc1 (stereo unspecified) | 0.7
COc1c(F)cccc1C1=CC(=O)CC(c2ccc3c(c2)OCO3)C1 (stereo unspecified) | 0.69
CCCCCCCCCCCCN1CC(=CC(=O)OCC)c2ccccc2S1(=O)=O | 0.73
Cc1ccc(C(=O)NC(=Cc2ccc(-c3cccc([N+](=O)[O-])c3)o2)C(=O)NC(C)(C)C)cc1 | 0.7
COc1ccc(C2C(=C(O)c3ccccc3)C(=O)C(=O)N2c2ccccn2)cc1OC (stereo unspecified) | 0.71
CC(C)(C)OC(=O)CC1CC=CCC(CC(=O)N(CCO)Cc2ccccc2)C(=O)NCC(c2ccccc2)OC1=O (stereo unspecified) | 0.65&0.67&0.69&0.72&0.68&0.69&0.69
CCN1C(=O)C2C(c3ccc(C)cc3)N3C(=O)N(c4cccc(F)c4)C(=O)[C@@]3(CC)C2C1=O (stereo partly specified) | 0.68
CCN1C(=NCc2ccccc2)NC(c2ccccc2)C(C(=O)OC)C1C (stereo unspecified) | 0.65
CCC1=C(OC(=O)N(CC)CC)N2C(=O)OC(=NCC3CC3)[C@]2(Cc2ccccc2)C2C1=CCC1C(=O)N(CC)C(=O)C12 (stereo partly specified) | 0.71
C#CCOCCOCCOCCNc1nc(N2CCN(C(=O)C(CCC(=O)O)n3cc(C(N)CCCCN)nn3)CC2)nc(N2CCN(C(=O)C(CCCCN)n3cc(C(N)C(C)CC)nn3)CC2)n1 (stereo unspecified) | 0.72
CC1Cc2cc(C(O)=C3C(=O)C(=O)N(CCN4CCOCC4)C3c3cccc(Cl)c3)ccc2O1 (stereo unspecified) | 0.69
COC(=O)C1=CC(C(=O)OC)C2C3=C(C(=O)[C@@]2(C)NC(=O)c2ccccc2)C(C)n2c(=O)n(C)c(=O)n2C3C1 (stereo partly specified) | 0.68
CCN1CC2C3C(=O)N(Cc4ccccc4)C(=O)C3[C@](C)(C1=O)N2C(=O)c1ccc(C)cc1 (stereo partly specified) | 0.68
CC(NC(=O)OCc1ccccc1)c1nnc(C(C)NC(=O)OCc2ccccc2)o1 (stereo unspecified) | 0.68
CC(=O)OCC1OC(CC=NOCC(O)C2OC3OC(C)(C)OC3C2O)C=CC1OC(C)=O (stereo unspecified) | 0.7
CC(=O)Oc1ccc(C#CC=C2c3ccccc3C(=O)N2c2ccccc2)cc1 | 0.74
C=CCN1CCc2c(cc(O)c(O)c2Br)C(c2ccccc2)C1 (stereo unspecified) | 0.68
CSCCCc1cn(C(CO)C(=O)NCCCCCCCCCCC(=O)N2CCNCC2)nn1 (stereo unspecified) | 0.68
COc1ccc(C2C=CCN(C(=O)c3ccccc3)C(Cc3ccccc3)C(=O)N2Cc2ccc(F)cc2)cc1 (stereo unspecified) | 0.72

Brought forward from above: 6 entries; new compounds follow.
SMILES | Ecoli growth
CC(NC(=O)OCc1ccccc1)c1nnc(C(C)NC(=O)OCc2ccccc2)o1 (stereo unspecified) | 0.68
CC(=O)OCC1OC(CC=NOCC(O)C2OC3OC(C)(C)OC3C2O)C=CC1OC(C)=O (stereo unspecified) | 0.7
CC(=O)Oc1ccc(C#CC=C2c3ccccc3C(=O)N2c2ccccc2)cc1 | 0.74
C=CCN1CCc2c(cc(O)c(O)c2Br)C(c2ccccc2)C1 (stereo unspecified) | 0.68
CSCCCc1cn(C(CO)C(=O)NCCCCCCCCCCC(=O)N2CCNCC2)nn1 (stereo unspecified) | 0.68
COc1ccc(C2C=CCN(C(=O)c3ccccc3)C(Cc3ccccc3)C(=O)N2Cc2ccc(F)cc2)cc1 (stereo unspecified) | 0.72
CCN1CCN(C(=O)C=CC(=O)O)CC1 | 0.69
CCCC(CCC)C(=O)OC1CC2CCC(C1)[N+]2(C)C (stereo unspecified) | 0.7
N#CC(=C1CCCN1)c1nc2ccccc2c(=O)[nH]1 | 0.68
CC1(C)C(=O)CC[C@@]2(C)C1CC[C@]1(C)C2C(=O)C=C2C3C[C@@](C)(C(=O)O)CC[C@]3(C)CC[C@@]21C (stereo partly specified) | 0.74
COc1ccc(-c2ccc(C3C4C=CCC[C@@]4(C)C(=O)N3Cc3ccccc3)c(F)c2)cc1 (stereo partly specified) | 0.75
C#CCOCCOCCOCCNc1nc(N2CCN(C(=O)C(C(C)CC)n3cc(C(N)CO)nn3)CC2)nc(N2CCN(C(=O)C(C(C)CC)n3cc(C(N)Cc4ccc(O)cc4)nn3)CC2)n1 (stereo unspecified) | 0.7
CCN1C(=O)N(C)C(c2ccccc2)C(C(C)=O)=C1C (stereo unspecified) | 0.72
O=C(C=Cc1ccccc1)Nc1ccc(NC(=O)c2ccco2)cc1 | 0.63
O=C1C=C(c2cccc(Br)c2)CC(c2ccc(Cl)cc2)C1 (stereo unspecified) | 0.73
COC(=O)[C@]1(CC(C)C)NC(c2ccc(-c3ccccc3)cc2)C2C(=O)N(C)C(=O)C21 (stereo partly specified) | 0.66
C=CCC(CC(=O)NCCO)C(=O)NC(COC(=O)C(CC=C)Cc1ccc(F)cc1)c1ccccc1 (stereo unspecified) | 0.67
CCCCCCSc1ccc(C2N[C@@](Cc3ccccc3)(C(=O)OC)C3C(=O)N(C)C(=O)C23)cc1OC (stereo partly specified) | 0.71
O=C(Nc1ccccc1)C1=CC(c2ccc(C(F)(F)F)cc2)CC(OCCCCO)O1 (stereo unspecified) | 0.64&0.71
C=CC(C)(C)OC1OC(CO)C(O)C(O)C1O (stereo unspecified) | 0.69
COc1ccc2c(c1)C[C@]1(C)c3ccccc3C(=O)N(Cc3ccccc3)C21 (stereo partly specified) | 0.73
C=C(CC1(C(NP(=O)(c2ccccc2)c2ccccc2)C2CC2CCCC)CC1)c1ccccc1 (stereo unspecified) | 0.68
NCCCCC1CNC(=S)N1CCc1cccc(F)c1 (stereo unspecified) | 0.7
CC1CCC2C(=O)NC(Cc3ccccc3)C(=O)N2C1c1ccccc1 (stereo unspecified) | 0.7
CC(CCC(C)OC1OC(C)C(O)CC1O)OC1OC(C)C(O)CC1O (stereo unspecified) | 0.7
NC(=O)CCC1NC(=O)C2CCCN2C(=O)c2cc([N+](=O)[O-])cc(I)c2NCCCC(C(N)=O)NC1=O (stereo unspecified) | 0.66
C#CCOCCOCCOCCNc1nc(N2CCN(C(=O)C(CCC(=O)O)n3cc(C(N)CO)nn3)CC2)nc(N2CCN(C(=O)C(CCC(=O)O)n3cc(C(N)CC(C)C)nn3)CC2)n1 (stereo unspecified) | 0.68
NC(=O)C1CC2(CC(c3cccc(NC(=O)CC(c4ccccc4)c4ccccc4)c3)=NO2)CN1C(=O)CC(c1ccccc1)c1ccccc1 (stereo unspecified) | 0.72
C=CC1c2ccccc2N(S(=O)(=O)c2ccc(C)cc2)C(c2ccc(C(F)(F)F)cc2)C1(C#N)C#N (stereo unspecified) | 0.72
CC[C@]12C(=O)N(C)CC(C3C(=O)N(C)C(=O)C31)N2C(=O)c1ccc(Br)cc1 (stereo partly specified) | 0.68
CC1(C)OC2C(CO)OC(n3cc(Br)c(=O)[nH]c3=O)C2O1 (stereo unspecified) | 0.72

Other entries follow.
SMILES | Ecoli growth
COc1ccc(C2CC(=O)c3c(O)cc(OC4OC(COC5OC(C)C(O)C(O)C5O)C(O)C(O)C4O)cc3O2)cc1O (stereo unspecified) | 0.7&0.7
CCN1C(Nc2ccccc2)=NCC1CC(C)C (stereo unspecified) | 0.7
CC(C)CC(CO)N1CCN(CCCc2ccccc2)CCC1=O (stereo unspecified) | 0.7
COc1ccc(C2C=CCN(S(C)(=O)=O)C(C)C(=O)N2Cc2ccc(F)cc2)cc1 (stereo unspecified) | 0.69
COc1ccc(NC(=O)NC(CCSC)C(=O)O)cc1Cl (stereo unspecified) | 0.71
C#CCOCCOCCOCCNc1nc(N2CCOCC2)nc(N2CCN(C(=O)C(CC(N)=O)n3cc(C(N)C(C)CC)nn3)CC2)n1 (stereo unspecified) | 0.66
O=C1Nc2ccccc2C(=O)N2C1C1C(=O)N(Cc3ccccc3)C(=O)C1C2c1cccc(Br)c1 (stereo unspecified) | 0.68
COc1cccc(C=CC(=O)Nc2ccc(OC)nc2)c1 | 0.64
CCOC(=O)C1C2COc3ccc(Cl)cc3C2N2C(=O)CN(Cc3ccc(F)cc3)C(=O)[C@@]12C (stereo partly specified) | 0.64
N#CC(=Cc1cccc(Oc2ccc(C(F)(F)F)cc2[N+](=O)[O-])c1)c1nc2ccccc2[nH]1 | 0.72
NC(=O)CCC1NC(=O)C2CCCN2C(=O)c2cc([N+](=O)[O-])cc(I)c2NCCCCC(C(=O)NC(CC(=O)O)C(N)=O)NC1=O (stereo unspecified) | 0.66
CC(C)(C)OC(=O)N1CCCC1C(=O)N1CCC(C(=O)O)CC1 (stereo unspecified) | 0.72
CCC1=C2CCC3C(=O)N(C)C(=O)C3C2[C@@]2(Cc3ccccc3)C(=NCC(=O)OC)OC(=O)N2C1=O (stereo partly specified) | 0.7
CN1CC2C(c3ccccc3)C3(c4ccc(C#N)cc4)CC2(C3)C1c1ccccc1 (stereo unspecified) | 0.68
CCC1=C(OC(=O)N(CC)CC)N2C(=O)OC(=NCc3ccccc3)[C@]2(C)C2C1=CCC1C(=O)N(CC)C(=O)C12 (stereo partly specified) | 0.72
CCC(C)Sc1ccc(C2N[C@@](C)(C(=O)OC)C3C(=O)N(CC)C(=O)C23)cc1 (stereo partly specified) | 0.69
O=C(Nc1ccc(F)cc1)C(Cl)=Cc1ccccc1 | 0.67
COC(=O)[C@@]12CCCCN1C(c1ccc(-c3ccc4c(c3)OCO4)cc1)C1C(=O)N(C)C(=O)C12 (stereo partly specified) | 0.7
COc1ccc(OC2C=CC(c3ccccc3)OC2COC(=O)CCC(C)=NOC(C)c2cn(C3COCC3O)nn2)cc1 (stereo unspecified) | 0.69
OCCC1CC(O)C(O)[C@@]2(OCc3ccccc32)O1 (stereo partly specified) | 0.66&0.68&0.69&0.69
CC1NC(=O)NC1CCCCCC(=O)O (stereo unspecified) | 0.68
NC(=O)c1ccccc1NC=CC(=O)c1cccs1 | 0.7
CC(C)(C)OC(=O)C(Cc1ccccc1)NC(=O)c1nc[nH]c1C(=O)NC(CCCCN)C(=O)OC(C)(C)C (stereo unspecified) | 0.69
C=C1CCN(C(CC(C)C)C(=O)NCc2ccc(OC)cc2)S(=O)(=O)c2ccccc21 (stereo unspecified) | 0.69
COc1cc(C2CC=C(C(=O)O)C(c3cccc(Cl)c3)N2S(=O)(=O)c2ccc(C)cc2)cc(OC)c1OC (stereo unspecified) | 0.61

3 entries out of the list above, sorted by the number in Ecoli growth, highest first.
SMILES | Ecoli growth
CC(C)(C)OC(=O)N1CCCC1C(=O)N1CCC(C(=O)O)CC1 (stereo unspecified) | 0.72
COc1ccc(NC(=O)NC(CCSC)C(=O)O)cc1Cl (stereo unspecified) | 0.71
CC(C)(C)OC(=O)C(Cc1ccccc1)NC(=O)c1nc[nH]c1C(=O)NC(CCCCN)C(=O)OC(C)(C)C (stereo unspecified) | 0.69

Continuation.
SMILES | Ecoli growth
CCCSc1ccc(C2C3C(=O)N(C)C(=O)C3[C@]3(C(=O)OC)CCCCN23)cc1OC (stereo partly specified) | 0.72
O=C(NCc1ccccc1)C1=CC(C2CC2)CC(OCc2ccc(CO)cc2)O1 (stereo unspecified) | 0.72&0.69
COC(=O)C1C[C@@]2(O)C(O)C(O)C(O)CC2N1Cc1ccc(-c2ccccc2)cc1 (stereo partly specified) | 0.67&0.69
CC(C(=O)Nc1cccc(S(=O)(=O)N2CCOCC2)c1)N1C(=O)C2CC=CCC2C1=O (stereo unspecified) | 0.68
COc1ccc(NC(=O)C=Cc2ccc(Br)o2)cn1 | 0.69
CCOC(=O)C1C2COc3cc(OC)ccc3C2N2C(=O)c3ccc(C)cc3NC(=O)[C@@]12C (stereo partly specified) | 0.67
COc1ccc2c(c1)OCC1C2N2C(=O)CN(Cc3ccccc3)C(=O)[C@@]2(C)C1c1ccccc1 (stereo partly specified) | 0.74
COC(=O)C(Cc1ccccc1)NC(=O)C(N)CC(=O)OCc1ccccc1 (stereo unspecified) | 0.69
COC(=O)C=C1NC(=O)C(C)S1 (stereo unspecified) | 0.71
O=C(COC(=O)C=Cc1cccc(F)c1)Nc1ccccc1 | 0.66
CCCCSC(N)=NN=Cc1cc(C)ccc1O | 0.69
O=C(CC1CC=CCCC(Cc2ccc(F)cc2)C(=O)OCC2CCCN2C1=O)NC(CO)Cc1ccccc1 (stereo unspecified) | 0.66&0.65&0.66
CN1CCCC1=CC=C1C(=O)N(C)C(=S)N1C | 0.65
COC(=O)CC=CC(C)C(C=NOCC1OC(c2ccccc2)C=CC1Oc1ccc(OC)cc1)OC (stereo unspecified) | 0.72
OCCC1CC(O)C(O)[C@]2(CCc3ccccc3O2)O1 (stereo partly specified) | 0.7&0.71&0.7&0.69
CC1CN(C(C)CO)C(=O)c2cc(NC(=O)Nc3cccc4ccccc34)ccc2OC1CN(C)Cc1ccc(-c2ccccc2)cc1 (stereo unspecified) | 0.73
CCOP(=O)(C(C#N)=C(C)O)c1ccccc1 (stereo unspecified) | 0.69
C[N+](C)(C)CCOP(=O)([O-])OCC(O)CO (stereo unspecified) | 0.64

This is a subset. The share of hits here may be higher or lower than overall.
